From PubChem BioAssay
HNF4A DNA FP: change in binding of human HNF4 alpha to DNA. 360,000 compounds, 0.3% hits. activity change, % at 10 µM. P41235. HNF4a-FITC DNA binding, fluorescence polarization, 1 h; in the data active means activity change above about 30%, passing the limit was not always enough;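 further: controls were the assay level and a saturating level of protein; the project sought stronger binding though the title names inhibitors; some compounds called inactive have numbers as strong as hits; positive values seem to mean higher polarization but the record does not say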
RanGTP-Impb inh: disruptors of Ran-importin-beta complex formation – biochemical, FRET, CFP-Ran, YFP-importin-beta, homogeneous, primary screen; cell-free CFP-Ran/YFP-importin-beta FRET ratio; inhibition, % (no concentration beside the values); 300,000 compounds, 1.1% hits; AID 2216;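 active means most replicates above 15%; inconclusive means exactly half above 15%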;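 further: 0% = DMSO wells and 100% = Ran loaded with GDP instead of GTP; wells of about 40 µL received 100 nL stock; the first replicate is given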
Beta2AR agonist: agonists of human beta-2 adrenergic receptor inducing internalization | P07550 | Am2.2-beta2AR cells, FAP receptor internalization, flow cytometry; reference of the scale not given here | response, % (no concentration beside the values) | 340,000 compounds, 0.43% hits | AID 504454;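 active means response above a set limit, near 3 SD of response in nonfluorescent compounds, cut at about 42% in these data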;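 further: stock transfer was 100 nL into about 11 µL; a reference agonist was the positive control; negative values mostly stem from fluorescent compounds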
ALR inh: blocks human ALR sulfhydryl oxidase activity. purified ALR, DTT oxidation, H2O2 HRP-luminol luminescence. 290,000 compounds, 3.8% hits. AID 485317. P55789. inhibition, % (test concentration not listed);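 active means mean and each replicate at 75% or more; inconclusive means only one of the two met; inactive means neither met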;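 further: stock transfer was 7.5 nL into about 7.5 µL; 0% = neutral wells and 100% = wells with inactivated enzyme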
Vif A3G: HIV-1 Vif–A3G interaction blockers – biochemical, TR-FRET, GST-Vif 1-94, biotin-A3G peptide, dose response retest, primary screen (AID 1117319); 260,000 compounds, 0.57% hits; TR-FRET GST-Vif / biotin-A3G peptide binding; higher % means a stronger effect; test concentration not given here; strong numbers were not always called active; inhibition, %, or IC50 in µM where a hit was titrated;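 active means above the screen mean plus three standard deviations and confirmed in dose response; inconclusive means results disagree or hit not tested in dose response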;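 further: Vif residues 1-94 fused to GST binding biotinylated APOBEC3G peptide 110-148; 0% = full assay without inhibitor and 100% = GST in place of GST-Vif; retest series ran down from 100 µM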
LANA-H2A inh: blocks KSHV LANA binding to histone H2A/H2B; 320,000 compounds, 0.6% hits; inhibition, % (test concentration not listed); cell-free LANA-H2A/H2B peptide, fluorescence polarization; in the data active means inhibition mostly above about 10%, no sharp cut-off; inactive means mostly below about 6.7%;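 further: stock transfer was 7.5 nL into about 10 µL; 0% = median of vehicle wells and 100% = median of positive control wells; one replicate is shown; the record names a cut of 25% in any replicate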
Target sequence (Q9QR71 whole entry, looked up): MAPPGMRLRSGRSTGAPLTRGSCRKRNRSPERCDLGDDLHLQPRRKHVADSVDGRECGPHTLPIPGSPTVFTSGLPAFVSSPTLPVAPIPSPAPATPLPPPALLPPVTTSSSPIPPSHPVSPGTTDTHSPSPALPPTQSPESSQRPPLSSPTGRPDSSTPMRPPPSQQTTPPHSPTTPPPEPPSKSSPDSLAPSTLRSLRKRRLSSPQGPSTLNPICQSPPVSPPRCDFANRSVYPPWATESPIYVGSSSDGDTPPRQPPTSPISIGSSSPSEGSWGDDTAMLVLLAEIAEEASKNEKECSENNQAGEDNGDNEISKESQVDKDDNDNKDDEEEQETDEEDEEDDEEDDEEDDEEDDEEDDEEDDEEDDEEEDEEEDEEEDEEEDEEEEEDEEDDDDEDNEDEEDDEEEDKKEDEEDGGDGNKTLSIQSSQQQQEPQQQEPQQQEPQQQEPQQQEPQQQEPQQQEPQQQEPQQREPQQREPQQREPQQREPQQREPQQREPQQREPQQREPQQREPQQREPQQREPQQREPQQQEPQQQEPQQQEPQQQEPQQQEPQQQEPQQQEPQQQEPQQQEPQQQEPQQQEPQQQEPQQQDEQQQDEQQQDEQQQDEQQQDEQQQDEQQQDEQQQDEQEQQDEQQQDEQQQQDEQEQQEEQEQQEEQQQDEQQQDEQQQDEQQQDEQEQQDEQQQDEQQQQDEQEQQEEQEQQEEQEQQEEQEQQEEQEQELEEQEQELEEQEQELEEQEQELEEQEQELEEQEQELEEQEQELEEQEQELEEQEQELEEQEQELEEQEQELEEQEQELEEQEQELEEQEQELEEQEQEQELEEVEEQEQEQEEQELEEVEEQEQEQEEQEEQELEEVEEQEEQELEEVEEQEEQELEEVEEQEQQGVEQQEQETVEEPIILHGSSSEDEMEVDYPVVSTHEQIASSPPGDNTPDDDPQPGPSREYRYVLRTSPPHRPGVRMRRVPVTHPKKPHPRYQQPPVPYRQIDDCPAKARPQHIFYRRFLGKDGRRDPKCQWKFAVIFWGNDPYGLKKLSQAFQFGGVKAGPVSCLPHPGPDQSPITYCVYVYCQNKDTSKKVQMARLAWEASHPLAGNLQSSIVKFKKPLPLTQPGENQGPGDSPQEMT
Calb FLC: affects C. albicans growth with fluconazole. growth inhibition, % (no concentration beside the values). 300,000 compounds, 0.57% hits. AID 1979. C. albicans CaCi-2 (fluconazole-resistant clinical isolate) + fluconazole, Alamar Blue growth, 48 h;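 active means most replicates above 75%; inconclusive means exactly half above 75%; inactive means most below 75%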;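 further: all wells also contain fluconazole at 8 µg/ml as a sub-toxic cotreatment; 0% = median of DMSO wells and 100% = median of geldanamycin control wells; wells of about 8 µL received 7.5 nL stock; the first replicate is given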
Numbers without * were called inactive; ? = inconclusive; / = no result given.

#	smiles	HNF4A DNA FP	RanGTP-Impb inh	Beta2AR agonist	ALR inh	Vif A3G	LANA-H2A inh	Calb FLC
1	CC1CN(Cc2nc3c(c(=O)[nH]c(=O)n3C)n2CC(N)=O)CC(C)O1 (centres undefined)	-0.6	0.9	1	-1	0%	-1.5	-4
2	CCOc1cc(S(=O)(=O)Nc2ccc(Cl)cn2)ccc1Cl	1.9	2.0	-4	-2	/	2.7	37
3	CN(CCOc1ccc(Cl)cc1)C(=O)Cc1ccc(S(=O)(=O)N2CCOCC2)s1	0.6	/	0	0	-3%	-0.7	/
4	COc1ccc(N2CCN(C(=O)CCc3nnc4ccc(N5CCC(C)CC5)nn34)CC2)cc1	-3.4	3.7	2	90*	/	1.7	-3
5	Cc1ccc(NC(=O)CN2CCC(NC(=O)Cc3ccccc3)CC2)cc1C	-0.9	-2.7	2	-6	7%	6.7	-4
6	COc1ccccc1-n1ccnc(SCC(=O)NCc2ccccc2Cl)c1=O	0.7	1.7	2	/	/	/	8
7	CCCCCN(C(=O)COC(=O)COc1c(C)cc(C)cc1C)c1c(N)n(CCCC)c(=O)[nH]c1=O	3.0	2.9	2	1	-2%	-1.0	8
8	CC(C)(C)c1cc(NC(=O)c2cccc(S(=O)(=O)N3CCOCC3)c2)no1	2.4	-0.4	7	-5	20%	-7.9	-2
9	S=C(c1cccs1)N1CCCC1	0.5	-0.1	1	-2	-3%	-0.5	-3
10	CCOc1cc(C2NC(=O)NC(C)=C2C(=O)OC(C)CC)cc(Br)c1O (centres undefined)	-1.8	5.5	5	47	8%	-1.0	4
11	COc1ccccc1NC(=S)NCCc1ccccc1	-1.0	1.9	-1	0	-2%	0.7	-8
12	c1ccc2c(NC3=NCCCCS3)cccc2c1	-2.1	-2.7	-4	-8	-5%	-7.5	6
13	CCOc1cc(-n2cnnn2)c(OCC)cc1NC(=O)c1cnccn1	3.0	-0.7	-1	-7	/	4.6	6
14	CCOc1ccc2ncc(S(=O)(=O)c3ccccc3)c(N3CCC4(CC3)OCCO4)c2c1	/	-2.6	/	-28	8%	2.0	-1
15	CCOC(=O)c1c(NC(=O)C2=C(C)NC(=S)NC2c2ccc(F)cc2)sc(C)c1C (centres undefined)	3.5	-1.5	0	-4	26%	-4.6	-6
16	Cc1noc(C)c1C(=O)NC1CCCc2ccccc21 (centres undefined)	-1.2	-0.5	-3	-2	1%	-3.4	13
17	CN(CC(=O)Nc1ccc(Cl)c(C(F)(F)F)c1)CC(=O)NC1CCCCC1	-1.3	/	0	/	/	-3.6	/
18	C[C@@H]1CC=C[C@H]2[C@H]1C(=O)N(Cc1ccccc1)[C@H]2c1ccc(Br)cc1F	-5.1	0.8	12	/	-10%	-3.8	-11
19	Cc1noc(C)c1NC(=O)N(C)C[C@H]1Oc2ccc(NC(=O)CCN3CCOCC3)cc2C(=O)N([C@H](C)CO)C[C@@H]1C	4.4	/	-4	1	/	17	/
20	CC[C@@]12C(=O)N(c3cccc(Br)c3)C(=O)N1[C@H](c1ccc(OC)cc1)[C@@H]1C(=O)N(C(C)(C)C)C(=O)[C@@H]12	-1.8	-0.7	-9	-2	/	-6.7	24
21	COc1ccc(C2=NN(CC(=O)Nc3cc(C)ccc3C)C(=O)CC2)cc1	6.5	4.5	6	/	1%	2.3	7
22	O=C(CCCn1ncn2c(cc3occc32)c1=O)NCc1ccccc1F	-0.2	3.0	-12	-1	/	-0.3	56
23	CN1CCN(c2ccc(NC(=O)c3ccc(-c4ccc(Br)cc4)o3)cc2)CC1	6.8	1.1	17	5	/	-1.7	14
24	CCc1noc(C)c1C(=O)N1CCN(S(=O)(=O)c2ccc(Br)cc2Cl)CC1	3.3	1.3	-13	4	3%	4.0	-4
25	Cc1c(C(=O)O)oc2c(F)cccc12	2.3	4.9	-3	-4	8%	3.7	9
26	c1cncc(-c2nc3cc4ccccc4cc3[nH]2)c1	3.2	0.2	11	-61	-1%	-2.5	74
27	O=C(Nc1nc(-c2ccc3c(c2)OCCO3)cs1)C1CCCC1	-0.7	?	-7	1	/	0.8	-14
28	Cc1cc(NC(=O)CSc2nc3c([nH]c4ccccc43)c(=O)n2-c2cccc(C(F)(F)F)c2)no1	1.2	1.3	5	/	22%	/	48
29	COC(CNc1ncnc2c1cnn2C)OC	-4.7	2.8	-1	-3	-11%	-6.5	-7
30	O=C1N[C@H](Cc2ccccc2)COC(=O)[C@H](Cc2ccc(F)cc2)CC/C=C/C[C@H]1CC(=O)N(CCO)Cc1ccccc1	-2.9	/	1	-4	/	2.4	/
31	Cc1cc(C)c(C)c(S(=O)(=O)NCCCN2CCCC2=O)c1C	-2.7	-0.9	-4	-2	5%	8.5	-1
32	COC(=O)c1scc(C)c1N/N=C(\C)c1cc(F)c(Cl)cc1F	-1.3	-2.1	-10	-1	-11%	-1.8	25
33	O=C(CNS(=O)(=O)c1ccc(Br)s1)NCc1ccc2c(c1)OCO2	2.6	3.4	-1	1	?	6.4	-4
34	C#CCOCCOCCOCCNc1nc(N2CCN(C(=O)Cn3cc(CCCCN)nn3)CC2)nc(N2CCN(C(=O)[C@H]([C@@H](C)CC)n3cc(CCCN=C(N)N)nn3)CC2)n1	2.0	/	-1	/	/	-2.5	/
35	COc1ccc(CC(=O)N2CCN(S(=O)(=O)c3cccs3)CC2)cc1OC	2.2	-5.6	1	-8	2%	-0.4	-2
36	O=C(N/N=C/c1ccco1)C1CC1	0.9	-0.4	-10	-4	2%	2.5	-1
37	COc1ccc(OC)c(NC(=O)CSc2nnc(-c3ccco3)n2-c2ccccc2)c1	-1.3	-2.4	0	-15	2%	3.7	-28
38	CCOC(=O)c1c(NC(=S)NC(=O)c2cnn(CC)c2)sc2c1CCC(C)C2 (centres undefined)	0.9	1.4	10	3	5%	2.1	0
39	CC(=O)c1cccc(NC(=O)c2noc3c2CCc2ccccc2-3)c1	-1.8	-3.1	2	-5	/	0.7	7
40	COc1ccc(NC(=O)CCn2c(=O)c3cccn3c3ccccc32)cc1	1.1	7.1	-16	-4	/	-0.5	19

From entry 33 to 34, as listed above:
#	smiles	HNF4A DNA FP	RanGTP-Impb inh	Beta2AR agonist	ALR inh	Vif A3G	LANA-H2A inh	Calb FLC
33	O=C(CNS(=O)(=O)c1ccc(Br)s1)NCc1ccc2c(c1)OCO2	2.6	3.4	-1	1	?	6.4	-4
34	C#CCOCCOCCOCCNc1nc(N2CCN(C(=O)Cn3cc(CCCCN)nn3)CC2)nc(N2CCN(C(=O)[C@H]([C@@H](C)CC)n3cc(CCCN=C(N)N)nn3)CC2)n1	2.0	/	-1	/	/	-2.5	/

(next part)
#	smiles	HNF4A DNA FP	RanGTP-Impb inh	Beta2AR agonist	ALR inh	Vif A3G	LANA-H2A inh	Calb FLC
41	Cn1c(=O)oc2cc(S(=O)(=O)NCc3ccc(F)cc3)ccc21	4.1	1.2	-68	-3	/	-1.8	1
42	CC(C)c1nnc(NC(=O)Cn2nc(-c3ccc4c(c3)OCCO4)ccc2=O)s1	-1.3	0.6	-4	-5	?	-1.1	-4
43	CCOCCCNC(=O)N[C@@H](C)C(=O)OC	4.6	-3.0	6	-4	-6%	2.0	-6
44	COc1ccc(C)cc1S(=O)(=O)NC(C)C(=O)Nc1ccc2c(c1)OCO2 (centres undefined)	3.1	2.1	3	-55	/	3.7	-2
45	Cn1nc(C(F)(F)F)c(-c2ccccc2)c1NC(=O)c1ccco1	-1.0	1.7	-4	-6	-3%	1.6	-8
46	CN(C(=O)c1c[nH]c(=O)cc1C(F)(F)F)c1ccc(Cl)cc1	1.2	4.1	8	-15	-2%	-4.4	-7
47	CC1CCC2(CC1)NC(=O)N(CC(=O)N1CCN(C(=O)c3cccs3)CC1)C2=O (centres undefined)	3.6	/	0	1	13%	-7.4	/
48	Cc1ccc(C2=CSC3=NCCN23)c(C)c1	-3.0	-1.0	4	-7	-2%	2.3	-6
49	CCOCC(=O)Nc1nnc(COC)s1	1.8	0.7	3	-3	5%	7.2	-24
50	OC(CC#CCN1CCCCC1)(c1ccccc1)c1ccccc1	2.6	-2.6	4	/	4%	2.6	-9
51	Cc1ccc(NC(=O)N(O)C2CCCCC2C#N)cc1 (centres undefined)	1.6	/	-2	/	-3%	/	/
52	Cc1ccnc(NC(=O)CCC(=O)N(CC(=O)NC2CCCCC2)c2ccc3c(c2)OCO3)c1	0.4	4.1	1	-4	2%	3.9	0
53	CCC(c1nnnn1Cc1ccccc1)N1CCN(c2ccccc2)CC1 (centres undefined)	-1.8	0.4	3	73	-4%	0.4	12
54	Cc1nn(CC(=O)NCc2ccc(OC(C)C)cc2)c(=O)c2cc3occc3n12	/	-2.5	/	-8	1%	-4.3	-2
55	CCc1ccc(NC(=O)c2ccc(C3SCC(=O)N3CCc3ccccc3)cc2)cc1 (centres undefined)	-0.1	4.4	3	5	4%	5.5	8
56	Cc1nc2ccccn2c1C(=O)N/N=C/c1ccccc1Cl	1.3	?	6	-1	-1%	1.2	-1

9 compounds out of the list, arranged by number of heavy atoms, largest number first:
#	smiles	HNF4A DNA FP	RanGTP-Impb inh	Beta2AR agonist	ALR inh	Vif A3G	LANA-H2A inh	Calb FLC
52	Cc1ccnc(NC(=O)CCC(=O)N(CC(=O)NC2CCCCC2)c2ccc3c(c2)OCO3)c1	0.4	4.1	1	-4	2%	3.9	0
55	CCc1ccc(NC(=O)c2ccc(C3SCC(=O)N3CCc3ccccc3)cc2)cc1 (centres undefined)	-0.1	4.4	3	5	4%	5.5	8
54	Cc1nn(CC(=O)NCc2ccc(OC(C)C)cc2)c(=O)c2cc3occc3n12	/	-2.5	/	-8	1%	-4.3	-2
44	COc1ccc(C)cc1S(=O)(=O)NC(C)C(=O)Nc1ccc2c(c1)OCO2 (centres undefined)	3.1	2.1	3	-55	/	3.7	-2
45	Cn1nc(C(F)(F)F)c(-c2ccccc2)c1NC(=O)c1ccco1	-1.0	1.7	-4	-6	-3%	1.6	-8
46	CN(C(=O)c1c[nH]c(=O)cc1C(F)(F)F)c1ccc(Cl)cc1	1.2	4.1	8	-15	-2%	-4.4	-7
51	Cc1ccc(NC(=O)N(O)C2CCCCC2C#N)cc1 (centres undefined)	1.6	/	-2	/	-3%	/	/
48	Cc1ccc(C2=CSC3=NCCN23)c(C)c1	-3.0	-1.0	4	-7	-2%	2.3	-6
49	CCOCC(=O)Nc1nnc(COC)s1	1.8	0.7	3	-3	5%	7.2	-24

Later entries.
#	smiles	HNF4A DNA FP	RanGTP-Impb inh	Beta2AR agonist	ALR inh	Vif A3G	LANA-H2A inh	Calb FLC
57	CC(SCc1cc(=O)n2c([nH]c3ccccc32)c1C#N)C(=O)O (centres undefined)	3.0	1.8	16	/	2%	3.6	44
58	O=C1Nc2ccccc2C(O)(C(=O)NCc2ccco2)N1c1ccccc1 (centres undefined)	-5.7	5.4	2	-7	2%	6.9	8
59	CC(C)=NOCC(=O)Nn1c(COc2c(C)cccc2C)nc2ccccc2c1=O	-3.1	8.6	3	4	/	-1.7	15
60	CCn1c2ccc(C)cc2c2nnc(NN)nc21	-2.9	-2.1	-12	99*	2%	6.7	2
61	N=C(N)Sc1nc(N2CCCCC2)nc(N2CCCCC2)n1	1.6	2.2	1	-1	-7%	-5.7	-6
62	COc1cccc(CNC(=O)C2CCC(CNS(=O)(=O)c3cccc4nsnc34)CC2)c1 (centres undefined)	0.1	?	-7	-10	2%	1.7	-2
63	Cc1nc(N2CCC(C)CC2)c2c(C)c(C(=O)Nc3cccc(C(F)(F)F)c3)sc2n1	2.6	-3.6	18	-2	/	0.8	-7
64	Cc1cc2occ(CC(=O)NCc3cccs3)c2cc1C(C)C	4.1	-1.4	-4	-7	-3%	-1.1	-13
